StopGo reporter – FMDV 2A StopGo reporter, luciferase signal | human cells with a luciferase reporter of 2A StopGo recoding; control for the full effect not named in the record | Potency, µM (doses to about 57.9 µM), inactives show at the top dose signal change, negative = less light | 1.2% of 410,000 active | AID 1159524; active = well fitted falling curve with a large enough effect; inconclusive = small, poorly fitted or top-dose-only effect; inactive = no such curve, though single readings can be large or run the other way; tested in HEK293T cells; note: nearly all actives have a fitted effect of over 45% in size; luciferase light after 4 h
RE007 growth inh – less growth of the S. pombe RE007 Vpr strain. S. pombe RE007 Vpr strain, BacTiter-Glo ATP luminescence, 24 h; control for the full effect not named in the record. Potency, µM (top dose mostly 92.2 µM), for the others: at the highest dose activity change, negative = less growth. 0.21% of 360,000 active. AID 651644; active = well fitted falling curve with a large enough effect; inconclusive = small, poorly fitted or top-dose-only effect; inactive = no such curve, though single readings can be large or run the other way;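 note: nearly all actives have a fitted effect of over 50% in size; the assay follows cell death caused by Vpr and the record does not say whether a fall means rescue or toxicity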
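Fission yeast RE007 carrying one integrated HIV-1 vpr copy, seeded at OD 0.01 in PMG+AL medium with 23 nL pinned compound. Grown 24 h at 30 degrees; viability read by BacTiter-Glo luminescence after 5 min.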
An asterisk follows results filed as active; ? = inconclusive; [ ] = dose if it differs, or a comment. % is set by controls: 0 for no effect and ±100 for the full control effect; potency is the fitted concentration of half-maximal effect. A portion of the library; rates above refer to the full screens.

Screens in order: StopGo reporter, RE007 growth inh
- COc1cc(OC)cc(-c2noc([C@@H]3O[C@H](CO)[C@H](O)[C@H](O)[C@H]3O)n2)c1
    -9%, 2%[18.4 µM]
- Cc1ccccc1-c1cnc(C(O)c2c(C)cccc2C)[nH]1 (configuration not stated)
    -14%, -17%
- COC(=O)CCC(=O)OC1(C)C(=O)C2=CN(c3ccccc3)C(c3ccc(OC)cc3)=CC2=C(Br)C1=O (configuration not stated)
    18%, 13%
- COCCCNC(=O)C[C@@H]1C[C@@]2(C(=O)OC)CCCCC=C2N(Cc2ccc(Cl)cc2Cl)C1=O
    -14%, -14%
- OC[C@@H]1CN(Cc2ccncc2)C[C@H](n2cnc3c(NCc4ccncc4)ncnc32)O1
    3%, -7%
- CCOC(=O)C(=Cc1ccccc1)C(=O)c1ccccc1
    8.9µM*, 15%
- C=C1C(=O)CC2=C1[C@](Cc1ccc(F)cc1)(C(=O)OC)N(C(=O)c1ccccc1)C2
    ?, -5%
- Cn1ccc2c(N3CCCCCCC3)cc3c(c21)C1CCC3O1 (configuration not stated)
    -19%, -30%
- CC(C)(C)OC(=O)N1CCCN(C(c2ccnc3ccccc23)c2nnnn2-c2ccc3c(c2)OCCO3)CC1 (configuration not stated)
    -14%, -13%
- CC(=O)O[C@@H]1[C@@H](O)[C@@H](O)[C@H](Oc2c(-c3ccc(O)cc3)oc3c(CC=C(C)C)c(O)cc(O)c3c2=O)O[C@H]1C
    ?, 6%
- CC(=O)Oc1ccccc1Cn1c(C)c(C(=O)NCc2cccc(Cl)c2)sc1=O
    0%, -5%[18.4 µM]
- COc1ccc(-c2ccc3sc4ccccc4c(=O)c3c2)cn1
    -26%, 4%
- CCOc1ccc(CCN2C(=S)N([C@@H](CC(C)C)CN3CCCC3CN3C(=S)NC[C@@H]3CC(C)C)C[C@@H]2Cc2ccccc2)cc1 (some centres not stated)
    -29%, -16%
- O=c1[nH]cc(F)c(=O)n1C1OC(CO)C(O)C1O (configuration not stated)
    0%, -6%
- O=C1CC2(CCCCC2)Oc2ccc(Cl)cc21
    -9%, 5%
- CN(CCc1ccccc1)C(C(=O)Nc1ccc2c(c1)OCCO2)c1ccnc2ccccc12 (configuration not stated)
    -11%, -3%
- NC(=O)c1ncn([C@@H]2O[C@H](CNCc3ccc(-c4cc(C(F)(F)F)ccc4Cl)o3)[C@@H](O)[C@H]2O)n1
    -17%, 1%
- C/C(=N\NC(=O)c1nnn(-c2nonc2N)c1CN1CCC(C)CC1)c1ccc(Br)cc1
    -24%, 10%
- COC(=O)C(Cc1ccc(O)cc1)NC(=O)Cn1cc(C)c(=O)[nH]c1=O (configuration not stated)
    -20%, -7%
- CC1(C(=O)Nc2ccc(F)cc2F)CCN1C(=O)CCC1CCCC1 (configuration not stated)
    -7%, -7%[18.4 µM]

Complete entries, quoted from the list.
NC(=O)c1ncn([C@@H]2O[C@H](CNCc3ccc(-c4cc(C(F)(F)F)ccc4Cl)o3)[C@@H](O)[C@H]2O)n1 as listed: StopGo reporter = -17%; RE007 growth inh = 1%
COc1ccc(-c2ccc3sc4ccccc4c(=O)c3c2)cn1 as listed: StopGo reporter = -26%; RE007 growth inh = 4%
CC(=O)O[C@@H]1[C@@H](O)[C@@H](O)[C@H](Oc2c(-c3ccc(O)cc3)oc3c(CC=C(C)C)c(O)cc(O)c3c2=O)O[C@H]1C as listed: StopGo reporter = ?; RE007 growth inh = 6%

Next section
Screens in order: StopGo reporter, RE007 growth inh
- CC(C)NC(=O)c1cc(C2CCCCN2C(=O)c2ccc(C#N)cc2)on1 (configuration not stated)
    8%, -4%
- Cc1cccc(C)c1NC(=O)C(c1cccc(F)c1)N1CCN(C)CC1 (configuration not stated)
    -19%, 0%
- CN(C)Cc1csc(NC(=O)Nc2ccccc2C(C)(C)C)n1
    -14%, 7%
- CC(C)(C)n1nnnc1C(c1ccccc1)N1CCN(C(=O)C2CCCO2)CC1 (configuration not stated)
    -11%, -7%
- COC(=O)c1ccc(C(=O)OC)c(NC(=O)Cc2cccs2)c1
    -7%, -19%
- COCCNC(=O)C1(C)CCCN(C(=O)c2ccc(C(F)(F)F)cc2)C1 (configuration not stated)
    -12%, 15%
- N#CC12c3ccccc3C(=O)N1Cc1cnnn1-c1ccccc12 (configuration not stated)
    -20%, 8%
- COc1ccc(OC)c(Nc2cc3ccccc3c(=O)[nH]2)c1
    -11%, 1%
- CC1(C(=O)O)CCN1C(=O)c1cccnc1Oc1ccccc1 (configuration not stated)
    -8%, 12%[18.4 µM]
- COc1cc(F)ccc1-c1csc(C(C)(NC(C)=O)c2ccccc2)n1 (configuration not stated)
    -21%, 3%
- Cc1ccc(S(=O)(=O)N2C[C@H]3[C@H]4C(=O)N(c5ccccc5)C(=O)[C@H]4C[C@H](OC(=O)NC4CC4)[C@@]3(O)C2)cc1
    -17%, -14%
- CCOc1ccccc1NC(=O)C(OC(=O)c1cnc(C)cn1)c1ccccc1 (configuration not stated)
    -5%, 1%
- CNC[C@H]1OCc2ccccc2-c2ccccc2C(=O)N([C@@H](C)CO)C[C@H]1C
    3%, 10%
- CCCS(=O)(=O)NC(=O)C1(C)CCN(C(=O)c2c(C)noc2C)C1 (configuration not stated)
    5%, 7%
- COc1ccc(CCNC(=O)c2c(O)c3cc(OC)c(OC)cc3[nH]c2=O)cc1OC
    -9%, -12%
- COC(=O)c1ccc2nc(-c3ccco3)c(Cc3ccc(OC)cc3C)n2c1
    ?, -3%
- CCOC(=O)c1cc(OC)c2cccc(CN3CCCC(C)(C(=O)NCCOC)C3)c2c1 (configuration not stated)
    -20%, -14%
- NC(c1csc(NC(=O)Nc2cccc(Cl)c2)n1)c1ccccc1Cl (configuration not stated)
    -13%, -11%
- OC[C@@H]1CN(Cc2ccccc2)C[C@H](n2cnc3c(NCc4ccc(F)cc4)ncnc32)O1
    40%[activator], -10%[18.4 µM]
- CC(=O)Nc1ccc(NC(=O)C2(C)Cc3c(-c4ccc5c(c4)OCO5)ccnc3O2)cc1 (configuration not stated)
    -7%, 3%

Exported with tabs: entries from further up.
structure	StopGo reporter	RE007 growth inh
COc1cc(F)ccc1-c1csc(C(C)(NC(C)=O)c2ccccc2)n1 (configuration not stated)	-21%	3%
CCCS(=O)(=O)NC(=O)C1(C)CCN(C(=O)c2c(C)noc2C)C1 (configuration not stated)	5%	7%

Later entries:
Screens in order: StopGo reporter, RE007 growth inh
- CCCc1c(-c2ccc(F)cc2)ncn1CCc1ccccc1OC
    ?, ?
- COC(=O)[C@@]12C[C@@H](CC(=O)N3CCC(c4ccccc4)CC3)C(=O)N(Cc3ccccc3)C1=CCC(C)(C)C2
    -24%, 6%
- CCCCCCCCCC1NC(C(=O)O)Cc2c1[nH]c1ccccc21 (configuration not stated)
    -19%, -1%
- CC(CCC(=O)O)C1CCC2C3CC(O)C4CC(O)CC[C@]4(C)C3CCC12C (some centres not stated)
    -24%, 6%
- O=C(Nc1ccc2c(c1)OCO2)c1cc(C2CCCCN2C(=O)c2ccc3ccccc3c2)on1 (configuration not stated)
    19%, 10%
- COc1ccc(-c2cnc3c(NC(C)=O)cc(-c4cccc(C(=O)NCCN(C)C)c4)cn23)cc1OC
    2%, -8%[18.4 µM]
- Cc1ccccc1C(=O)N1Cc2ccccc2-n2nncc2C1
    -26%, 0%
- Cc1ccc(S(=O)(=O)NC(=O)C2(C)CCN2C(=O)Cc2cccs2)nc1 (configuration not stated)
    -6%, -10%[18.4 µM]
- Cc1ccc(C(=O)OCC(=O)N2CCC(C)CC2)cc1S(=O)(=O)N1CCOCC1
    -16%, -15%
- CCCCCc1c(Cc2ccccc2)ncn1CCc1ccccc1OC
    35µM*, ?
- CN1CCN2c3ccccc3CC(C#N)(C#N)C2C1 (configuration not stated)
    5%, 2%
- O=C(CS(=O)(=O)c1ccc(Cl)cc1)Nc1nccs1
    3%, -16%
- CSc1ncnc2c1ncn2CCCNCc1ccc2c(c1)OCO2
    -16%, -6%
- CC1CCN(C(=O)c2ccc3c(c2)C(=O)c2ccccc2-3)CC1
    67%[activator], 5%
- CC1=C(C/C=C(\C)CCC[C@H](C)CCC[C@H](C)CCCC(C)C)C(=O)c2ccccc2C1=O
    -16%, 3%
- Cc1cn(CC(=O)N[C@H](C)c2cccc3ccccc23)c(=O)[nH]c1=O
    -11%, -6%
- Cc1ccccc1NC(=O)CNC(=O)N1CC(=O)Nc2ccccc21
    0%, 2%
- NC(=O)c1cccc(-c2cccc3nccn23)c1
    -9%, 1%
- Cc1ccc(OC(=O)N(C)C[C@@H]2OCc3cn(nn3)CCCC(=O)N([C@@H](C)CO)C[C@H]2C)cc1
    -8%, 18%
- Cc1cccnc1NC(=O)Nc1cccc(F)c1
    61%[activator], 0%
- O=C(Nc1ccccc1Cl)c1cc(C2CCCCN2C(=O)c2cccs2)on1 (configuration not stated)
    -3%, 7%
- CC(C)N1CCOC(c2ccc(O)c(O)c2)C1 (configuration not stated)
    -4%, 6%
- CCOC(=O)C1=CCN(S(=O)(=O)c2ccccc2F)C1c1ccc(Cl)c(Cl)c1 (configuration not stated)
    -29%, -4%
- CC1(C(=O)NS(=O)(=O)c2ccc(F)cc2F)CCN1C(=O)CC1CCCCC1 (configuration not stated)
    -5%, 5%
- O=S1(=O)N[C@H](Cc2ccccc2)COc2cccc(N3CCSCC3)c21
    -24%, -20%
- O=c1[nH]c(=S)[nH]c2c1C(C1CCCCC1)OC(C1CCCCC1)C2 (configuration not stated)
    -28%, 7%
- Cc1ccc([C@H]2C[C@H](n3cc(COC(=O)c4ccccc4)nn3)[C@@H](O)CN2C(=O)C2CCCCC2)cc1
    -7%, -7%
- COC(=O)c1ccc(Oc2nc3ccccc3n3c(C)nnc23)cc1
    -7%, 0%
- Cc1ccc(S(=O)(=O)NCc2ccccc2NS(=O)(=O)c2ccc(C)cc2)cc1
    5%, 9%
- Cc1ccc(S(=O)(=O)N2CCC(C(=O)NCCN3CCOCC3)CC2)cc1
    -4%, 4%
- O=C(COc1ccc(F)c(Cl)c1)NC(=O)NC1CCCC1
    22%, 15%
- CC(C)(C)NC(=O)C1(C)CCC(=O)N1C1CC1 (configuration not stated)
    -8%, 6%
- O=C(NCC1CC1)C1(C(F)(F)F)C/C(=C\Cc2ccccc2)CCCO1 (configuration not stated)
    0%, 9%
- NS(=O)(=O)c1cccc(NC(=O)COC(=O)c2ccc(S(=O)(=O)N3CCOCC3)cc2)c1
    -21%, 0%
- COc1ccc2cc(C3CC=C(COC(C)=O)CN3S(=O)(=O)c3ccccc3[N+](=O)[O-])n(C(=O)OC(C)(C)C)c2c1 (configuration not stated)
    -19%, 12%
- CC1=C(C(=O)N(C(C)C)C(C)C)CC(CC(=O)NCCc2ccccn2)C(=O)N1Cc1ccccc1 (configuration not stated)
    -23%, 9%
- CC(C)=CCc1cc([C@@H]2CC(=O)c3ccc(O)c(CC=C(C)C)c3O2)ccc1O
    ?, 8%
- COc1ccc(CN(CCNC(=O)CCCCC(=O)NCCN(Cc2ccc(OC)cc2)C(C)C)C(C)C)cc1
    -13%, 0%
- COc1ccc(NC(=O)C2(C)Cc3c(-c4cccc(C(N)=O)c4)ccnc3O2)cn1 (configuration not stated)
    -4%, 48%
- O=C(Cc1ccc([N+](=O)[O-])cc1)N/N=C/c1cccnc1
    -23%, 3%
- CCNC(=S)Nc1ccc2c(c1)oc1ccccc12
    74%[activator], -9%
- CC(=O)OC1(C)C=Cc2ccccc2C1=NS(=O)(=O)c1ccccc1 (configuration not stated)
    -24%, -24%
- Cc1ccc(CCC(=O)Nc2ccc(Cl)cc2Cl)o1
    25%, -16%
- O=C(Cc1c[nH]c2ccccc12)N1CCN(S(=O)(=O)c2ccc(F)cc2)CC1
    -23%, 0%
- C[N+](C)(C)C[C@H](O)CC(=O)O
    -16%, 3%[18.4 µM]
- CS(=O)(=O)c1ccc(Nc2nc(C(N)Cc3ccc(F)cc3)cs2)cc1 (configuration not stated)
    -23%, -13%[18.4 µM]
- CCCCn1nnnc1C(c1cccs1)N1CCN(C/C=C/c2ccccc2)CC1 (configuration not stated)
    -11%, -29%
- Cc1nn(-c2ccccc2)c(-c2ccccc2[N+](=O)[O-])c1CC#N
    -3%, -2%
- C[C@@H]1CCCCO[C@H](CN(C)C(=O)Nc2cccc3ccccc23)[C@@H](C)CN([C@H](C)CO)C(=O)c2cc(NC(=O)c3ccccc3)ccc2O1
    -3%, -13%
- COC(=O)[C@H](Cc1ccccc1)NC(=O)/C=C/[C@H]1O[C@@H](n2cc(C)c(=O)[nH]c2=O)C[C@@H]1O
    -21%, 2%
- Cc1ccc(-c2cnc(C(O)c3c(C)cccc3C)[nH]2)cc1 (configuration not stated)
    -15%, -22%[18.4 µM]
- CC(=O)Nc1ccc(-c2ccnc3c2CC(C(=O)NCc2ccco2)O3)cc1 (configuration not stated)
    -14%, 12%
- O=C(CC[C@H]1O[C@@H](n2cnc3c(NC(=O)c4ccccc4)ncnc32)[C@H](O)[C@@H]1O)NCCCN1CCOCC1
    -19%, -19%
- CC1=NN(C(N)=S)C(=O)C1N=Nc1ccccc1[N+](=O)[O-] (configuration not stated)
    9%, -6%
- C[C@@H]1CN([C@@H](C)CO)C(=O)CCCn2nncc2CO[C@@H]1CN(C)C(=O)Nc1ccc(N2CCN(C)CC2)cc1
    -7%, -12%

Screening data from PubChem BioAssay.
